# Source: PubChem BioAssay
# MT1-MMP act inh = blocks activation of human MT1-MMP; P50281; HT1080 RFP-PRO-GFP cells, GFP/RFP ratio fluorescence, overnight; percent of plate control window, DMSO zero; GFP/RFP ratio change, % at 20 µM; actives 0.061% (n = 360,000); AID 651647;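 active means GFP/RFP ratio change of at least 30% with cell ATP level not reduced by more than half and red fluorescence within 50% of control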; further: strong numbers were not always called active
#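 Assay system – RFP-PRO-GFP reporter HT1080 cells · Compound dosing – single dose of 20 µM compound, 1% DMSO final · Incubation – overnight compound exposure at 37 °C · Measure – GFP/RFP fluorescence ratio · Benchmarks – DMSO wells and RFP-L50D-GFP cells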
# Env fusion inh = inhibitors of HIV Env-mediated cell fusion; HeLa-JRFL Env/CEM21 cell fusion, luciferase; inhibition, % at 12.3 µM; actives 1.1% (n = 360,000); AID 651610;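 active means mean replicate inhibition score of at least 50 and every replicate individually at or above 50; inconclusive means only one of the two criteria met; inactive means mean below 50 and not all replicates reaching 50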;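 further: 0% = plate neutral controls and 100% = maraviroc near 300 nM; one replicate is shown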
# PABP polyA inh = blocks human PABP binding to poly(A) RNA; P11940; fluorescence polarization; inhibition, % at 35 µM; actives 1% (n = 290,000);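 active means 50% or more with normal probe brightness, or confirmed in later tests; inconclusive means above 50% with abnormal brightness, or retests that disagree; inactive means below 50% or failed in later tests; about a fifth of its hits are not listed in these tables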;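 further: calls also rest on retests at 20 µM and on dose response follow-up; controls were probe without protein and protein plus probe with vehicle; some compounds called inactive have numbers as strong as hits; many hits fall short of the cut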
# Target sequence (P11940 whole entry, looked up): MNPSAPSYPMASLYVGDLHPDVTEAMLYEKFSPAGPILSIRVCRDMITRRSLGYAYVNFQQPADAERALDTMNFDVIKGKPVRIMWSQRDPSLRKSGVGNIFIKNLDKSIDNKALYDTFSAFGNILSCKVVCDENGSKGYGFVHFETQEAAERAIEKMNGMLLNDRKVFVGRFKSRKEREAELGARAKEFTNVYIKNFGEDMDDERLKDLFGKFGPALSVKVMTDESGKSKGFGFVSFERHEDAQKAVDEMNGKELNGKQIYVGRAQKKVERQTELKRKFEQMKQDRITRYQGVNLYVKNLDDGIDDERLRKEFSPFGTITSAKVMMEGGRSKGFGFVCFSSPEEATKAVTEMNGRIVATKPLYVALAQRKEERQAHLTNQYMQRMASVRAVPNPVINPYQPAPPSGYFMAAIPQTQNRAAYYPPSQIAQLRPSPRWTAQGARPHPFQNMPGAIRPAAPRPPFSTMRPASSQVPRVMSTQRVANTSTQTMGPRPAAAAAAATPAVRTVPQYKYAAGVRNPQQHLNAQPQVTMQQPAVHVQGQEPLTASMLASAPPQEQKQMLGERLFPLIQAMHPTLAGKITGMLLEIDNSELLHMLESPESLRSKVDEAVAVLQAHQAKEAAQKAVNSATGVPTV
# Yeast UUG start = yeast start codon fidelity modulation; actives 0.13% (n = 350,000); activity score, % at 18.7 µM; S. cerevisiae UUG-firefly luciferase reporter, luminescence/redox ratio;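 active means replicate mean at a twofold rise or more, about +100% in these data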;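 further: firefly luciferase made from a UUG start codon reports start codon fidelity; reporter light over untreated wells divided by growth signal over untreated wells; some hits fall short of that in this replicate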
# CSC inhib = cancer stem cell inhibition | cancer stem cell-like cells viability, luminescence | inhibition, % at 7.5 µM | actives 1.1% (n = 300,000);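 active means mean at 75% or more and at least half the replicates too; inconclusive means mean and replicates disagree; tested in HMLE shEcad cells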;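 further: 0% = median of negative and 100% = median of positive control wells; the first replicate is given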
# eIF4H inh = inhibitors of RNA binding by human eIF4H. eIF4H fluorescence polarization binding assay. inhibition, % at 35 µM. actives 0.94% (n = 290,000). AID 2012;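 active means 50% or more with normal probe brightness, or confirmed in later tests; inconclusive means above 50% with abnormal brightness, or retests that disagree; inactive means below 50% or failed in later tests; about a fifth of its hits are not listed in these tables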;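 further: calls also rest on retests at 20 µM and on dose response follow-up; 0% = protein and probe with vehicle and 100% = probe without protein; strong numbers were not always called active; many hits fall short of the cut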
# Rce1 inhib = inhibitors of yeast Ras-converting enzyme; actives 0.27% (n = 290,000); calls only; yeast membranes, quenched prenylated peptide cleavage fluorescence;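 active means fall in fluorescence gain of 50% or more versus controls, with final raw signal at or below 3038400; inconclusive means same 50% fall but final raw signal above 3038400; inactive means fall in fluorescence gain under 50%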;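 further: plate controls were neutral control wells for no effect and wells lacking membranes for full effect; tested at 10 µM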
# Target sequence (Q03530 whole entry, looked up): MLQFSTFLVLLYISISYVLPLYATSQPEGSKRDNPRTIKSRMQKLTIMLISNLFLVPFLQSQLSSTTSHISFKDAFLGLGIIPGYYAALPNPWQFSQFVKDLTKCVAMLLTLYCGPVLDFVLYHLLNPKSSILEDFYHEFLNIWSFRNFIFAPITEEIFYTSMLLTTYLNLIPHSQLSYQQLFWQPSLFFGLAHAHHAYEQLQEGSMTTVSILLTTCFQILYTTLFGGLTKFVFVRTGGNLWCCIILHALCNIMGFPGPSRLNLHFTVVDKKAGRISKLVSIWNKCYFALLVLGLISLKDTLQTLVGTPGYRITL
# MT1-MMP act inh RFP = also measured in MT1-MMP act inh; calls as there; RFP signal change, %; measured here: RFP expression control read;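 0 = vehicle wells; hits needed this value within 50% of zero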
# * = called active by the depositor; i = inactive; ? = inconclusive; . = no result given; & = joins results of further samples; ! = a repeat was not active; [ ] = remark or other dose.
mol,Rce1 inhib,Yeast UUG start,PABP polyA inh,Env fusion inh,eIF4H inh,CSC inhib,MT1-MMP act inh,MT1-MMP act inh RFP
O=C(NCCc1ccc(F)cc1)c1n[nH]c2ccccc12,i,.,7.4,-18.6,-3.0,6.2,-2.2,1.0
COc1ccc(-c2cn3cc(C)ccc3n2)cc1OC,i,-25.0,-7.4,i,-10.7,-4.5,10.7,1.3
Nc1nc(SCC(=O)Nc2ccc(OCc3ccccc3)cc2)n[nH]1,i,-12.4,-1.4,-45.5,-8.6,4.0,4.5,0.4
COc1cc(NS(=O)(=O)c2ccc(NC(=O)c3ccc(F)cc3)cc2)ncn1,i,-17.1,-6.1,1.1,-1.0,6.5,2.8,2.3
Cc1ccc(NC(=O)NC(=O)c2ccccc2)cc1F,i,-11.6,4.6,.,-12.8,-14.2,1.1,3.5
O=C(c1ccc(F)c(S(=O)(=O)N2CCOCC2)c1)N(CCc1ccccc1)Cc1ccccc1,i,.,.,.,.,-4.8,-8.3,-4.7
Cc1cccc(N2C(=O)CS/C2=N\NC(=O)c2ccc(Cl)cc2)c1C,i,-19.3,3.0,-2.2,-6.0,-6.4,3.5,1.2
Cc1ccc(-c2cc(C(=O)Nc3cc(C)on3)c3ccccc3n2)c(C)c1,i,-20.2,-14.8,-129.1,-2.4,-0.8,-5.4,-6.1
CC(C)CN(C#N)c1nc(N2CCOCC2)nc(N2CCOCC2)n1,i,-4.2,1.2,11.6,-5.7,9.8,0.2,-3.0
CCCCNC(=O)CSc1nc2c(sc(=S)n2-c2cc(Cl)ccc2OC)c(=O)[nH]1,i,-18.2,2.8,11.0,2.5,-5.3,1.4,0.9
CCc1cccc(OCCCCNCCCOC)c1,i,-9.8,-10.2,.,-5.4,18.1,7.8,9.4
C[C@H]1CN([C@@H](C)CO)S(=O)(=O)c2ccc(Br)cc2O[C@H]1CN(C)Cc1ccccc1,.,12.7&-4.0&-5.5,.,60.6*![16.7 µM],.,.,-3.8,-1.5
Cc1cc(S(=O)(=O)N2CCOCC2)ccc1OCC(=O)Nc1ccc(Br)cc1F,.,-0.6,6.8,1.0,12.4,-5.0,2.7,4.9
c1ccc(Cc2noc(CN3CCN(Cc4ccc5c(c4)OCO5)CC3)n2)cc1,i,.,5.9,6.0,-2.3,-9.5,0.4,3.5
COc1ccc(CNC(=O)CCSc2ccc(F)cc2)cc1OC,i,.,-0.1,-8.4,-0.2,-5.6,0.0,1.8
O=C(CSc1nnc(Nc2ccccc2)s1)NN1C(=O)NC2(CCCCC2)C1=O,i,.,14.8,2.6,-2.0,.,1.5,5.6
Cc1cc(NC(=O)c2ccccc2)c(Cl)cc1N,i,-10.3,8.7,1.6,7.7,.,6.0,4.2
CC1CCC(C(C)C)C(OP(=O)(c2ccccc2)C(O)c2ccncc2)C1 (configuration not stated),i,-17.7,38.1,35.4,-2.5,9.1,-1.5,0.3
CC(C)Oc1ccc(S(=O)(=O)N2CCCCC2)cc1NC(=O)CN1C(=O)NC2(CCCC2)C1=O,i,.,.,16.8,.,.,-0.5,0.6
Cc1cccn2c(=O)c3cc(C(=O)NCCC4=CCCCC4)n(C)c3nc12,i,-16.7,9.0,23.7,2.3,-1.2,-2.3,-2.2
C=CCN1C(=O)c2ccccc2NC1c1cc(Br)cs1 (configuration not stated),.,-8.9,0.5,22.9,-2.4,1.4,-2.3,-4.9
CN(C)c1nc(C#N)nc(N2CCOCC2)n1,i,.,0.9,.,-11.1,-7.1,-1.6,1.1
CCC1(C2=CCCCC2)C(=O)NC(=O)N=C1N (configuration not stated),.,-9.9,.,-7.7,.,.,2.2,2.6
O=C(COc1cccc(Cl)c1)Nc1ccc(N2CCOCC2)cc1,i,.,13.2,.,-0.6,5.7,3.2,2.9
O=C(Cc1ccccc1)OCC(=O)c1cccc([N+](=O)[O-])c1,.,-11.0,.,8.2,.,-7.8,2.2,5.5
O=C(NCc1cccs1)C1Cc2c(-c3ccccc3Oc3ccccc3)ccnc2O1 (configuration not stated),.,-14.4,.,21.2,.,.,0.6,-0.7
CN(Cc1ccccc1)C(=O)CCS(=O)(=O)c1cc2c(cc1Cl)NC(=O)CO2,i,-9.9,-25.2,-4.2,-10.3,-17.0,0.7,2.5
CCCCc1c(C)c(C#N)c2nc3ccccc3n2c1Cl,i,.,-25.4,.,-5.8,.,.,.
COc1cc(C(=O)N/C(=C\c2cn(C)c3ccccc23)C(=O)N2CCN(C)CC2)cc(OC)c1OC,i,28.8,-3.5,-3.9,-2.7,.,-2.6,4.1
O=C(COc1ncnc2c(Cl)cc(Cl)cc12)N1CCN(S(=O)(=O)c2ccccc2)CC1,i,-3.7,3.5,.,-6.8,3.8,-1.2,-2.1
O=[N+]([O-])c1ccc(COc2ccc(CNc3ccccc3)cc2)cc1,i,.,6.6,-2.0,-5.4,-7.0,5.0,-4.3
CCn1c(Cc2ccc(OC)cc2)nnc1SCC(=O)Nc1cccc(C(=O)OC)c1,.,-1.9,9.5,36.3,-8.6,-3.7,5.9,1.1
COCCNC(=O)C(c1ccc(C)cc1)N(Cc1cccs1)C(=O)CCC(=O)Nc1ccccn1 (configuration not stated),i,-1.5,2.4,10.3,-5.8,-6.0,0.9,4.1
COc1cc2cc(C#N)c(SCC(=O)Nc3cc(C)on3)nc2cc1OC,i,-4.4,-3.7,0.9,6.8,-5.8,2.1,3.4
CCN(CC)C(=O)C1=C(C)N(Cc2ccc(C(C)(C)C)cc2)C(=O)C(CC(=O)NCCN2CCOCC2)C1 (configuration not stated),.,1.1,.,-29.9,.,.,1.3,2.5
Cc1ccc(-c2csc(N3CCN(CCCn4c(C(F)(F)F)nc5ccccc54)CC3)n2)cc1,i,-15.8,-8.8,?,-5.9,4.5,2.6,-15.2
COc1cccc(Oc2ccc(C(F)(F)F)cc2NC(=O)CCc2nc3ccccc3c(=O)[nH]2)c1,i,-9.7,-0.9,19.3,-28.0,45.5,-1.4,-1.5
COc1ccc(N(C(=O)c2ccco2)C(C(=O)NC2CCCC2)c2cccs2)cc1OC (configuration not stated),i,11.9,8.0,.,15.1,-20.0,.,.
COc1nc2ccccc2nc1N1CCN(c2ccc(F)cc2)CC1,i,5.4,-3.2,36.3,-1.6,3.9,2.9,-1.0
COc1ccc(C=O)cc1OS(=O)(=O)c1ccccc1[N+](=O)[O-],i,.,8.4,20.6,-5.7,-5.2,-1.6,1.3
Cc1cccc(NC(=O)c2ccccc2NC(=O)C2CCCCC2)c1C,i,-7.2,6.7,.,10.0,49.3,-1.5,-3.6
CC(/C=N/NC(=O)c1cccnc1)=C\c1ccccc1,i,.,-1.7,-19.9,0.2,-7.3,2.5,9.5
Cc1ccc(NC(=O)c2ccc(S(=O)(=O)C(F)F)cc2)c(C)c1,i,.,11.6,-17.1,-10.8,-7.3,3.9,2.6
O=S(=O)(c1ccc(-c2nnco2)cc1)N1CCCCC1,i,-7.2,-1.1,-16.0,-8.0,-9.3,-0.4,-0.6
C=C1[C@@H](O)[C@H](CC(C)C)N(Cc2ccccc2Br)S1(=O)=O,.,8.7,.,-7.0,.,.,-3.4,-13.6
COc1cc(/C=N/NC(=O)COc2ccccc2[N+](=O)[O-])ccc1OC(=O)c1ccco1,i,.,11.1,.,1.5,-9.2,3.1,2.2
O=C(CSc1nc(Nc2ccccc2)nc(N2CCOCC2)n1)Nc1ccccc1Cl,i,-3.1,-2.0,.,-6.1,26.1,-8.6,-8.7
CCOC(=O)C1C2C=CC3(CN(c4cccc(Cl)c4)C(=O)C13)O2 (configuration not stated),i,-6.2,-0.3,-2.9,8.5,0.4,.,.
Cc1cc(=O)oc2ccc(OCC(=O)N(Cc3ccc(F)cc3)Cc3ccco3)cc12,i,-4.5,-1.7,-2.6,-0.9,-2.5,-5.4,-8.4
CCOc1ncnc2c1[nH]c1ccccc12,i,-18.9,-5.7,-5.4,-16.7,-6.4,3.4,-18.4
CCN(CC)C(=O)[C@H]1CC(CC(=O)NC/C=C(\C)CCC=C(C)C)C(=O)N2CCc3c([nH]c4ccc(OC)cc34)[C@]12C (some centres not stated),.,1.4,.,3.0,.,.,-26.1,-30.9
CN=C1SC(CC(=O)Nc2ccc(C(=O)O)cc2)C(=O)N1C (configuration not stated),i,7.4,19.0,-46.4,39.2,-6.4,-9.0,-4.0
COc1ccccc1-c1ccc2c(c1)C(C)(Cc1ccccc1C#N)C(=O)N2 (configuration not stated),.,-6.4,.,63.1*,.,.,4.2,-12.0
COc1ccc(/C(N)=N/OC(=O)Cc2ccc(C)cc2)cc1,i,.,2.7,18.5,1.1,4.8,-1.8,-0.6
Cc1cc(C)nc(SCC(=O)Nc2ccc(S(=O)(=O)Nc3ncccn3)cc2)n1,i,-11.2,6.2,16.4,5.5,-6.7,-2.3,-3.2
O=C(NCc1ccc(-c2csnn2)cc1)c1cccs1,i,.,-7.3,8.6,5.3,-6.9,9.9,-0.1
COc1ccc(N2CCN(C3CCCN(Cc4ccccc4OCCO)C3)CC2)cc1 (configuration not stated),i,-20.3,10.2,-4.7,11.5,-5.4,4.6,0.2
O=C(CCSCCC(=O)NCC1CCCO1)NCC1CCCO1 (configuration not stated),i,.,6.0,24.8,-12.5,-18.5,3.7,1.8
O=C(Nc1cccnc1)C1CCCN(c2ncnc3c2nc2n3CCCCC2)C1 (configuration not stated),i,-2.5,4.7,-0.1,-18.4,.,-2.3,-1.7
Cc1cccc(NC(=O)CN2CCC(NC(=O)C3CCCCC3)CC2)c1C,i,.,6.6,-10.1,-7.0,.,1.2,-2.4

# More results
mol,Rce1 inhib,Yeast UUG start,PABP polyA inh,Env fusion inh,eIF4H inh,CSC inhib,MT1-MMP act inh,MT1-MMP act inh RFP
OCCC1CN(Cc2cnc(-c3ccccc3)s2)CCN1CCc1ccccc1 (configuration not stated),i,.,-4.3,6.7,-2.4,22.4,0.5,2.2
O=C(NS(=O)(=O)c1ccc2c(c1)OCCO2)c1ccccc1,i,-11.5,6.9,.,-0.8,-8.0,-1.9,-1.3
CCOC(=O)C1CCN(c2c(Nc3ccc4c(c3)OCCO4)c(=O)c2=O)CC1,i,-36.0,-24.9,-85.8,-3.3,.,-0.3,1.7
Cc1cccc(/C=C(\c2nc3ccccc3[nH]2)S(=O)(=O)c2ccccc2)c1,i,.,-9.5,-316.6,-12.4,.,-19.6,-23.4
CCOc1ccc(N=C2SCC(=O)N2CC)cc1,i,-8.8,7.9,2.7,-2.9,-1.8,8.3,-0.3
CNC(=O)CN(Cc1ccccc1)S(=O)(=O)c1ccc(Cl)cc1,i,-10.3,16.1,-52.4,6.7,-14.7,-0.9,2.7
COc1ccc2nc(NC(=O)CSC(C)C(=O)Nc3cc(C)on3)sc2c1 (configuration not stated),i,-26.8,.,-7.8,.,-0.7,2.5,0.1
COc1cc([N+](=O)[O-])ccc1NC(=O)C[n+]1cccc(C)c1,i,-22.0,-1.4,-78.8,-1.1,-0.4,2.1,1.8
COc1ccc(CNC(=O)C2(C)Cc3c(-c4cccc(C(N)=O)c4)ccnc3O2)cc1OC (configuration not stated),.,8.1,.,11.7,.,.,3.9,2.0
